Screening results as filed in PubChem.
Resorufin autofl – qHTS Assay for Spectroscopic Profiling in Resorufin Spectral Region; max dye-equivalent concentration, M; hit rate 0.04% among 59,000; Compound fluorescence, resorufin region 547/598 nm, buffer; stronger effect = higher value; active = above 10 nM dye equivalent; inconclusive = 1 to 10 nM; inactive = 1 nM or less; a few of its hits are not listed in these tables; also: highest value over a series up to 38 µM
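Compounds in 100 mM Tris, pH 8.0, incubated 15 min at room temperature, then fluorescence read at 547 nm excitation/598 nm emission. Signal converted to dye-equivalent concentration via an on-plate six-point resorufin standard curve, per compound concentration.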
A647 autofl – qHTS Assay for Spectroscopic Profiling in A647 Spectral Region. Compound fluorescence, A647 channel (570/671 nm), Tris buffer. max dye-equivalent concentration, M. 59,000 tested, under 10 active. AID 592, 2007; active means above 1 µM dye equivalent; inconclusive means 0.1 to 1 µM; inactive means 0.1 µM or less;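 also: values scaled relative to a standard on each plate; highest value over a series up to 38 µM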
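Tris 100 mM pH 8.0; cpd + A647 stds pin-transferred; 15 min RT; CCD imager, ex 570/em 671. Output = A647-equivalent conc. per cpd conc.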
AID923 – qHTS Assay for Allosteric/Competitive Inhibitors of Caspase-1: Spectroscopic Profiling in AFC Spectral Region. compound fluorescence, AFC spectral region (405/520 nm); almost no hit is shown here. Potency, µM (highest dose often 57.5 µM), for the others: top-dose fluorescence increase, usual class: activators. hit rate 1.1% among 75,000; active = well fitted activation curve with a large enough effect; inconclusive = small, poorly fitted or top-dose-only effect;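 also: potency is read from the fitted curve at half-maximal effect; 0% is about no effect; scaled to a free AFC standard on each plate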
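Baseline compound fluorescence (AFC region, 405 nm ex/520 nm em) taken from the intercept of kinetic reads with 50 nM caspase-1 and 5 uM Ac-WEHD-AFC; normalized to an on-plate AFC standard curve; compounds titrated up to 57 uM.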
A488 autofl – qHTS Assay for Spectroscopic Profiling in A488 Spectral Region; hit rate 0.1% among 59,000; AID 591, 2007; max dye equivalency, M; compound autofluorescence, A488 spectral region, dye equivalency; stronger effect = higher value; active = above 10 nM dye equivalent; inconclusive = 1 to 10 nM; inactive = 1 nM or less; about half of its hits are not listed in these tables;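 also: highest value over a series up to 38 µM; compound alone in buffer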
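Compounds pin-transferred into 100 mM Tris buffer, pH 8.0, incubated 15 min at room temperature, then imaged with 480 nm excitation/540 nm emission filters. Fluorescence converted to Alexa 488 dye-equivalent concentration via an on-plate six-point A488 standard curve.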
TSHR agonist – qHTS Assay for Agonists of the Thyroid Stimulating Hormone Receptor. Thyrotropin receptor (Homo sapiens), P16473. HEK293-CNG-TSHR cells (CNG channel as cAMP sensor), membrane potential dye, cAMP. Potency, µM (doses to about 57.1 µM), inactives show at the top dose activation, most hits filed as activators. hit rate 0.48% among 73,000. AID 926, 2007; active = well fitted activation curve of enough size with the parental cells flat; inconclusive = any curve in the parental cells; inactive = parental cells flat and receptor cells flat or falling; also: potency is read from the fitted curve at half-maximal effect; % of control where 0% means no effect; weak receptor curves with flat parental cells got no call and are not listed
Target sequence (P16473 whole entry, looked up): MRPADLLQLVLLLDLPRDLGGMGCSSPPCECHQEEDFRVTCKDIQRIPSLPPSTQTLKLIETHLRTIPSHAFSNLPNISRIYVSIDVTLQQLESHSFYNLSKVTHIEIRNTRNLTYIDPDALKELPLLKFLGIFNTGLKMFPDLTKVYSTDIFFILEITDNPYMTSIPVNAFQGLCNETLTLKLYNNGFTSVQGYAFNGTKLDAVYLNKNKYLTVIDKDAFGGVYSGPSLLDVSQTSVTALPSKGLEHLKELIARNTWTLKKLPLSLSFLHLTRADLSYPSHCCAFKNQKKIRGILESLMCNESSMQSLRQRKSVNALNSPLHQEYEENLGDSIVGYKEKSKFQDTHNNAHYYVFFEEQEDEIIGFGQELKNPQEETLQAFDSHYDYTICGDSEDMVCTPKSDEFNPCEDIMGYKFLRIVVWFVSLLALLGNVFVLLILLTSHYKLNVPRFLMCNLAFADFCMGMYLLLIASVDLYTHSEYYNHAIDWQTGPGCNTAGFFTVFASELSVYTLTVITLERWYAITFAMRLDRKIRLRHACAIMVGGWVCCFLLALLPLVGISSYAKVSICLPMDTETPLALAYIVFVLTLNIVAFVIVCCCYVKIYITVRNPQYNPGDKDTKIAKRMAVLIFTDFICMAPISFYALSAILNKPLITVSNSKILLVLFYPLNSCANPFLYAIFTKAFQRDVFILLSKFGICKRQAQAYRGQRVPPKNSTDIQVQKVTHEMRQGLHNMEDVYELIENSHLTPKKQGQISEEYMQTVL
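HEK 293 cells stably expressing TSHR and a cAMP-gated CNG channel; parental CNG-only cells as counterscreen. Cells preloaded 60 min with membrane potential dye plus 100 uM RO 20-1724, then compound 30 min; fluorescence read at 590 nm.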
Active calls of the source: *; i = inactive; ? = inconclusive; . = not tested or not shown; & = joins results of further samples; [ ] = remark or other dose. A portion of the library; count on the stated rates, not on these rows.

SMILES | Resorufin autofl | A647 autofl | AID923 | A488 autofl | TSHR agonist
OCCN1CCN(CC/C=C2\c3ccccc3Sc3ccc(C(F)(F)F)cc32)CC1 | i | 3.5e-08&2.2e-08 | 2.6%[25.7 µM] | i | -3%[25.6 µM]
C=CCSc1nc(N)c(C(=O)Nc2ccccc2C)cc1C(N)=O | i | 2.9e-08 | -2.0% | i | -9%
CC(C)COC(=O)NCCCOC(=O)Nc1ccccc1 | i | 4.4e-08 | 0.3% | i | 15%
COc1ccc(NC(=O)c2cc(C(C)C)on2)cc1OC | i | 1.2e-08 | -0.3% | i | -6%
O=C(c1coc(=O)c(Br)c1)N1CCOCC1 | i | 2.8e-08 | . | i | .
COC(=O)c1cccc(NC(=O)c2nn(C(C)C)c(=O)c3ccccc23)c1 | i | 3.5e-09 | 0.4% | i | ?
CC12CCC(C(=O)NCc3cccnc3)(OC1=O)C2(C)C (centres undefined) | i | 6.8e-08 | 1.5% | i | 1%
CCOC(=O)N(Cc1ccccc1)C(C(=O)O)C(C(=O)O)N(Cc1ccccc1)C(=O)OCC (centres undefined) | i | 3.1e-08 | -0.9% | i | 15%
COc1ccccc1NS(=O)(=O)c1cccc2cccnc12 | . | . | -0.1% | . | 11%
CNc1nc(C)c(C(=O)OCC(=O)OC)s1 | . | . | 1.0% | . | 2%
COc1ccc(OC)c(NC(=O)CSC2=NCCS2)c1 | i | 1.6e-08 | 1.7% | i | ?
CC(=O)Nc1ccccc1C=C1c2ccccc2-c2ccccc21 | i | 1e-09 | 2.5%[11.5 µM] | i | 11%[11.4 µM]
CC1(C(=O)O)CC(C)(C(=O)O)CC(C)(C(=O)O)C1 (centres undefined) | i | 1e-09 | -3.2% | i | 1%
Oc1cc(NCc2cccnc2)ccc1-c1nc2ccccc2o1 | . | . | 4.3% | . | -14%
Cc1csc(Cn2c(CN(C)C)nc3ccccc3c2=O)n1 | i | 1e-09 | -0.8% | i | 3%
CS(=O)(=O)N(CC(=O)N1CCCCC1)c1sc2c(c1C#N)CCCC2 | i | 3.4e-08 | 0.8% | i | -14%
COCCN(C(=O)c1ccccc1)c1nnc(-c2cccnc2)s1 | i | 1.5e-08 | -1.2% | i | -16%
Cc1cc2ncn(CC(O)COc3cccc(C(=O)O)c3)c2cc1C (centres undefined) | i | 3e-09 | -1.7% | i | 13%
Cc1ccc(C)c(NC(=O)c2ccccn2)c1 | i | 1.2e-08 | -2.4% | i | 7%
COc1cc(C2C(C#N)=C(N)Oc3n[nH]c(-c4ccncc4)c32)cc(OC)c1OC (centres undefined) | i | 6e-09 | 0.0% | i | 3%
O=c1c2ccccc2nnn1CSc1nnc2ccccn12 | i | 7.8e-09 | -2.9% | i | -1%
CC(c1ccccc1F)n1cc(C(=O)NCc2ccncc2)nn1 (centres undefined) | i | 1e-09 | -3.0% | i | -6%
CCOC(=O)C1CCCN(Cc2ccc(O)c(OC)c2)C1 (centres undefined) | . | . | 1.2% | . | -1%[11.4 µM]
COc1ccc(S(=O)(=O)NCc2ccco2)c2ccccc12 | i | 8.1e-09 | 0.3% | i | 9%
O=C(Cn1cnc2c(nnn2Cc2ccc(F)cc2)c1=O)NC1CCCC1 | i | 1.9e-09 | -0.8% | i | 1%
OC(c1ccc(Cl)cc1Cl)C(Cc1cccnc1)n1cncn1 (centres undefined) | i | 6.3e-09 | 0.9% | i | 5%
CC(C)CN(CC(C)C)S(=O)(=O)N1CCC(C(=O)NCc2ccccn2)CC1 | i | 3.2e-09 | 5.8% | i | 5%
COc1cccc(NC(=O)CSc2nc(N)cc(N)n2)c1 | i | 2.7e-08 | 0.6% | i | -7%
COc1c(NC(C)=O)c2ccccc2c2ccccc12 | i | 2.5e-08 | 4.3%[11.5 µM] | i | 4%[11.4 µM]
Cn1c(=NC(=O)C2CCN(S(=O)(=O)c3cccs3)CC2)sc2ccccc21 | i | 1.3e-08 | -1.3% | i | 25µM*
CC1(C)CC(=O)C(C=NCCN2CCNC2=O)=C(O)C1 | i | 1.7e-08 | 2.7% | i | -3%
Cc1ccccc1NC(=O)CCC(=O)OCCCC(F)(F)C(F)(F)F | i | 1.7e-08 | -3.1% | i | 2%
CC(C)(C)NC(=O)/C=N/O | i | 4.1e-09 | . | i | .
FC(F)(F)c1ccccc1-c1nc(NC2CCNCC2)c2ccccc2n1 | i | 4.2e-08 | 2.7% | i | 7%
NC(=O)c1oc2ccc(Cl)cc2c1N | i | 1.4e-08 | -0.6% | i | -1%
O=C(NC(C(=O)c1ccccc1)n1ccc(=O)[nH]c1=O)c1ccccc1 (centres undefined) | i | 1e-09 | 0.3% | i | ?
O=C(CSc1ncccn1)NCc1ccccc1 | . | . | 2.5% | . | 2%[11.4 µM]
COc1cc(C(=O)Nc2cc(C)ccn2)cc(OC)c1OC | i | 2.9e-08 | 1.6% | i | -4%
Cc1nn(-c2ccccc2)c2c1C(c1cccnc1)N1C=C(S(=O)(=O)N3CCCCC3)C=CC1=N2 (centres undefined) | i | 3.7e-08 | -3.0% | i | ?
O=c1c(-c2ccc(Cl)cc2)nc2cnc(N3CCOCC3)nc2n1C1CC1 | i | 1.2e-09 | 14% | i | 3%
CC1(C)CC(=O)C2=C(C1)Oc1ncn(CCCn3ccnc3)c(=N)c1C2c1ccccc1 (centres undefined) | i | 4.6e-09 | 1.1% | i | 10%
CCCc1nc2oc3c(NCC4CCCO4)ncnc3c2c2c1COC(C)(C)C2 (centres undefined) | i | 3.5e-09 | -1.3% | i | 21%
CC1CCC(NC(=O)C2c3ccccc3C(=O)N2CCCN2CCOCC2)CC1 (centres undefined) | i | 4.7e-08 | -1.3% | i | -1%
O=C(CN1C(=O)C2CC=CCC2C1=O)Nc1ccc(-c2nnc3n2CCCCC3)cc1 (centres undefined) | i | 1e-09 | 2.2% | i | -1%
O=C(CSc1ccccn1)Nc1ccc(Br)cn1 | i | 2.6e-08 | -1.8% | i | 4%
Cc1cc(N)n2nc(-c3ccccc3)cc2n1 | . | . | 0.8% | . | 8%
N#C[C@H](Cc1ccc(O)cc1)c1ccc(O)cc1 | . | . | -1.9% | . | -5%
Cc1ccc(-n2nc(C)c3c2OC(N)=C(C#N)C3c2ccc(F)cc2)cc1 (centres undefined) | i | 1.1e-09 | 2.4% | i | 9%
CC1OC2C(OC1C)N(S(C)(=O)=O)CCN2S(C)(=O)=O (centres undefined) | . | . | 2.6% | . | 10%
O=C(Nc1nc(-c2ccco2)cs1)c1ccccc1 | i | 1e-09 | 1.0% | i | ?
Additional entries
SMILES | Resorufin autofl | A647 autofl | AID923 | A488 autofl | TSHR agonist
CC(=O)Nc1ccccc1OCC(=O)c1cc(C)n(Cc2cccs2)c1C | i | 3.3e-09 | -1.9% | i | ?
O=C(CCn1c(=O)oc2ccccc21)NCc1cccs1 | i | 7.8e-09 | -0.9% | i | 0%
COC(=O)[C@@H](NC(=O)Nc1ccc2c(c1)OCCO2)C(C)C | i | 1e-09 | 2.5% | i | 4%
CCCc1cc(C(=O)NCc2ccco2)no1 | . | . | -1.1% | . | 4%
CCCCCCn1c(SCCN2CCOCC2)nc2c1c(=O)[nH]c(=O)n2C | i | 1e-09 | . | i | .
COc1ccc(NC(=O)Cc2cccs2)c(OC)c1 | . | . | -1.3% | . | -1%[11.4 µM]
C=CCN=C1CC(C)(C)CC(=O)/C1=C(/O)CCC(=O)OC | i | 1e-09 | -0.3% | i | 1%
c1cnc(Oc2ccc3oc4ccccc4c3c2)nc1 | i | 1e-09 | 1.5% | i | -2%
c1ccc(CCc2nn3c(Cn4cnc5ccccc54)nnc3s2)cc1 | i | 1e-09 | -2.1% | i | ?
CCOC(=O)CS(=O)(=O)c1ccc2ccccc2c1 | i | 1e-09 | 2.9% | i | -3%
Cc1csc2nc(CNS(=O)(=O)c3ccc(-c4ccccc4)cc3)cn12 | . | . | -1.5% | . | ?
CCCCNC(=O)c1cc2c(=O)n3cccc(C)c3nc2n1C | . | . | 5.4% | . | -1%
O=C(C1CCN(S(=O)(=O)c2ccc3ccccc3c2)CC1)N1CCN(c2ncccn2)CC1 | i | 5.3e-08 | -3.6% | i | ?
CCCn1cnc2c(SCC(=O)O)nc(N)nc21 | i | 1e-09 | 3.1%[11.5 µM] | i | 7%[11.4 µM]
CSc1nn(CCc2ccncc2)c(=S)s1 | . | . | 0.7% | . | 6%
O=C(CN1C(=O)NC2(CCc3ccccc32)C1=O)c1ccc2c(c1)OCCO2 (centres undefined) | i | 1e-09 | 0.1% | i | 5%
COc1cccc(-n2nnc3c(=O)n(Cc4c(F)cccc4Cl)cnc32)c1 | i | 4.7e-09 | -1.4% | i | .
O=C(NC(Cc1c[nH]c2ccccc12)c1nnc2n1CCCCC2)c1cccs1 (centres undefined) | i | 2.8e-09 | -1.8% | i | -2%
COc1cc(OC)c(-c2nnc(-c3ccc(OC)c(OC)c3OC)o2)cc1OC | i | 1e-09 | 0.2% | i | 4%
COC(=O)C1=C(C)NC(=O)C1(NC(=O)c1cccnc1)C(F)(F)F (centres undefined) | i | 1e-09 | 0.5% | i | -5%
CC(C)(CCC(C)(C)c1ccccc1)c1ccccc1 | i | 5.1e-09 | 1.6%[11.5 µM] | i | 0%[11.4 µM]
CC(=O)C(Sc1ccc2nnc(-c3ccncc3)n2n1)C(C)=O | . | . | 1.4% | . | ?
COc1ccc(CCNC(=O)CSc2nc(C)nc3c2oc2ccccc23)cc1OC | i | 2.7e-08 | -0.6% | i | 14%
COc1ccc(NC(=O)Cn2cnc3c(cnn3-c3ccc(C)c(C)c3)c2=O)c(OC)c1 | i | 4.4e-09 | -0.8% | i | -1%
Cc1oc2ccc(OCC(N)=O)cc2c1C(=O)OC(C)C | i | 1.1e-08 | 0.4% | i | 12%
CCCNC(=O)CCC(NS(=O)(=O)c1ccc(C)cc1)C(=O)NCCC (centres undefined) | i | 3.2e-09 | 0.0% | i | 10%
O=C(COc1ccc(Br)cc1)Nc1ccc(-c2nnc(-c3ccco3)o2)cc1 | i | 1e-09 | 0.4% | i | .
CC(=O)Nc1cccc(NC(=O)CCCC(=O)O)c1 | . | . | -1.2% | . | 3%
O=C(CSc1nnc(-c2cccnc2)n1CCc1ccccc1)N1CCCCC1 | i | 2.3e-08 | 0.3% | i | 25%
Cc1ccc(N2CC(C(=O)Nc3ccc(S(=O)(=O)N4CCOCC4)cc3)CC2=O)cc1 (centres undefined) | i | 8.7e-09 | 0.7% | i | -13%
CCCCCn1c(CN2CCN(c3cccc(Cl)c3)CC2)nc2c1c(=O)n(C)c(=O)n2C | i | 3.4e-08 | 0.7% | i | ?
Cc1ccc2cccc(O)c2[n+]1[O-] | i | 1.7e-08 | 2.3% | i | 3%

Entries of single compounds, looked up by structure. Screens in order: Resorufin autofl	A647 autofl	AID923	A488 autofl	TSHR agonist
CSc1nn(CCc2ccncc2)c(=S)s1 as listed: .	.	0.7%	.	6%
C=CCSc1nc(N)c(C(=O)Nc2ccccc2C)cc1C(N)=O as listed: i	2.9e-08	-2.0%	i	-9%
CNc1nc(C)c(C(=O)OCC(=O)OC)s1 as listed: .	.	1.0%	.	2%
OC(c1ccc(Cl)cc1Cl)C(Cc1cccnc1)n1cncn1 (centres undefined) as listed: i	6.3e-09	0.9%	i	5%
Cc1ccc(N2CC(C(=O)Nc3ccc(S(=O)(=O)N4CCOCC4)cc3)CC2=O)cc1 (centres undefined) as listed: i	8.7e-09	0.7%	i	-13%
